Bioassay records deposited in PubChem BioAssay by ICCB-Longwood Screening Facility, Harvard Medical School.
BmaI1 – BmaI1 acyl-homoserine lactone synthase inhibition – biochemical, fluorescence intensity, with counterscreen (AID 720554); 0.4% of 12,000 active; inhibition, %; BmaI1 enzyme assay, fluorescence intensity; active compounds read high; test concentration not given here; a few actives read low; strong numbers were not always called active;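 active = both replicates within 2 robust z-scores of the inhibited control and a quiet counterscreen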;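 also: 0% = uninhibited enzyme and 100% = inhibited control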
BmaI1 counterscreen – further read-out of BmaI1, marked with its call; inhibition, %; measured here: counterscreen; design of the counterscreen not given here;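 first of two replicates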
* marks the source's active call; other numbers are inactive results; & = joins results of further samples.

compound	BmaI1	BmaI1 counterscreen
C/C(=N\NC(=S)NC1CCCCC1)c1ccc(S(=O)(=O)NCc2ccco2)cc1	4	0
Cc1nn(CC(C)C)c(Cl)c1C(=O)NCc1cccnc1	14	6
Cc1noc(C)c1COC(=O)/C=C/c1cn(-c2ccccc2)nc1-c1cc2ccccc2oc1=O	6	1
ClC(=NC1CC1)c1ccccc1	16	6
NC(=O)CNS(=O)(=O)c1ccc(Br)c(C(=O)O)c1	12	10
CN(C)S(=O)(=O)c1ccc(C(=O)OCC(=O)c2csc(N3CCCCC3)n2)cc1	13	6
COc1cc(/C=C/C(=O)OCc2cc(=O)n3ccsc3n2)ccc1OC(F)F	12	10
COc1ccccc1NC(=O)C(C)OC(=O)C1COc2ccccc2O1 (stereo not drawn)	18	4
CC(C)(C)C(=O)OC1OCCOC1NC(=S)N1CCCC1 (stereo not drawn)	-3	-1
CCN1CCN(C(=O)c2cn(-c3ccccc3)nc2-c2ccccc2)CC1	14	5
CCOC(=O)c1oc2ccccc2c1COC(=O)CCC(=O)c1ccccc1	4	-4
Cc1cc(C(=O)CSc2nc3ccccc3c(=O)[nH]2)c(C)n1C	7	-2
COC(=O)c1ccc(OCC(=O)c2ccc[nH]2)cc1	10	4
CN(C)S(=O)(=O)c1cccc(CSc2n[nH]c(-c3cccs3)n2)c1	19	15
O=C(OCCCn1c(=O)[nH]c2ccccc21)c1ccc2c(=O)n3c(nc2c1)CCCCC3	7	0
COC(=O)c1c(C)oc(C)c(C(=O)OC)c1=O	2	2
Cc1noc(C)c1CSc1nc(-c2cccs2)c(-c2cccs2)[nH]1	32	6
CCN(CC)c1nc(-c2cccs2)c(C(=O)c2ccc(N3C(=O)CCC3=O)cc2)s1	12	10
Cc1cccc(COc2ccccc2C(=O)O)c1	8	6
COc1ccc(C(=O)COC(=O)CCn2c(C)csc2=O)cc1Cl	4	7
O=C1NC(=O)C(c2ccccc2)(c2ccccc2)N1	-10	4
O=S(=O)(c1ccc(SC2Cc3ccccc3C2O)nc1)N1CCOCC1 (stereo not drawn)	24	8
CC(C)OC(=O)CCC/C=C\C[C@@H]1[C@@H](CC[C@@H](O)CCc2ccccc2)[C@H](O)C[C@@H]1O	4	0
C=CCn1c(SC(C)C#N)nnc1-c1ccc(Br)cc1 (stereo not drawn)	12	10
COc1ccc(CNC(=O)[C@@H]2CCCN2C(=O)OC(C)(C)C)cc1OC	0	2
S=C(SCc1nnc(-c2ccc(Cl)cc2)o1)N1CCCC1	40	2
CC(OC(=O)C1CC1)C(=O)Nc1ccnn1C(C)C (stereo not drawn)	8	8
Cn1c(=O)c2c(=S)nc(C3CC3)[nH]c2n(Cc2ccccc2)c1=O	17	22
CN(C(=O)NC(=O)C1=C(N2CCOCC2)/C(=C\c2ccccc2)CC1)S(C)(=O)=O	-82	-60
CC1CC/C(=C\c2ccc(Cl)cc2)C(=O)C1 (stereo not drawn)	18	11
Cc1ccc(NC(=O)COC(=O)CC2Oc3ccccc3NC2=O)cc1 (stereo not drawn)	33	4
Cc1nn(-c2ccccc2)c2nc(N)c(C#N)c(-c3ccco3)c12	76	9
COc1ccc(-c2n[nH]c(=S)n2CCC(=O)O)cc1	46	31
CCC1(c2ccc(N)cc2)CCC(=O)NC1=O (stereo not drawn)	3	2
O=C(CN1CCCCC1)Nc1cccc2nsnc12	29	4
CC(NC(=O)c1ccc(C(C)(C)C)cc1)C(N)=O (stereo not drawn)	12	9
CN(CC(=O)Nc1ccc2c(c1)OCCCO2)Cc1ccc2c(c1)OCCO2	16	14
CC(C)Cn1c(=S)[nH]c2cc(C(=O)NCc3ccco3)ccc2c1=O	12	5
Cc1ccc(CNCC(O)COC2CCCc3ccccc32)n1C (stereo not drawn)	2	-6
N#Cc1nncn1-c1nc(-c2cccs2)nc2scc(-c3ccccc3)c12	-8	-4
Cc1ccc(S(=O)(=O)NC(=O)NC2CCS(=O)(=O)C2)cc1 (stereo not drawn)	3	8
CN(CC(=O)Nc1ccc(N2CCOCC2)cc1)Cn1nc(Nc2ccccc2F)sc1=S	104	45
CCn1c(-c2ccco2)nn(CN(C)CC(=O)Nc2ccc(F)c(F)c2F)c1=S	90	70
CC(C)c1cc(C(=O)O)c2cnn(C(C)C)c2n1	-6	-13
CCN(CC)S(=O)(=O)c1cccc(C(=O)N(Cc2cccs2)CC2CCCO2)c1 (stereo not drawn)	12	-2
CC(N=C1NS(=O)(=O)c2ccccc21)C(=O)N1CCN(S(=O)(=O)c2cccs2)CC1 (stereo not drawn)	2	-4
O=C(OCc1ncc(-c2ccccc2)o1)c1nc(-c2ccccc2)n(-c2ccccc2)n1	18	11
O=C(Cc1ccc(S(=O)(=O)N2CCCC2)s1)Nc1nc2c(s1)CCCC2	20	14
CCN1C(=O)C(=Nc2ccc(S(=O)(=O)N3CCOCC3)cc2)c2ccccc21	6	3
CC(SCC(=O)Nc1ccc(F)cc1)C(=O)O (stereo not drawn)	4	4
CC(C(O)c1ccc(O)cc1)N1CCC(Cc2ccccc2)CC1 (stereo not drawn)	-38	-37
O=C(COc1ccccc1C(=O)NCc1ccccc1)Nc1cccc2nsnc12	12	0
O=C(CC1CCCCC1)Nc1ccc(N2CCOCC2)cc1N1CCOCC1	30	4
Cc1ccc(CN(C)c2nc(CN3CCOCC3)nc3sc4c(c23)CCC4)o1	16	8
Cc1csc(=O)n1CC(=O)NC1CCCc2ccccc21 (stereo not drawn)	10	0
Cn1ccsc1=NC(=O)COc1cccc2ccccc12	16	12
NS(=O)(=O)c1cc(C(=O)OCC(=O)NC2CC2)ccc1Cl	-4	-2
O=C(CSc1nc2ccccc2o1)Nc1ccccc1	10	1
O=S(=O)(NCc1cccnc1)c1cccc2nsnc12	-3	-2
CC(=O)NC(CC(=O)n1nnc2ccccc21)c1ccccc1 (stereo not drawn)	-22	0

A different layout for some results above:
> C/C(=N\NC(=S)NC1CCCCC1)c1ccc(S(=O)(=O)NCc2ccco2)cc1
  BmaI1: 4
  BmaI1 counterscreen: 0

> Cc1nn(CC(C)C)c(Cl)c1C(=O)NCc1cccnc1
  BmaI1: 14
  BmaI1 counterscreen: 6

> Cc1noc(C)c1COC(=O)/C=C/c1cn(-c2ccccc2)nc1-c1cc2ccccc2oc1=O
  BmaI1: 6
  BmaI1 counterscreen: 1

> ClC(=NC1CC1)c1ccccc1
  BmaI1: 16
  BmaI1 counterscreen: 6

More entries
compound	BmaI1	BmaI1 counterscreen
CC(C)c1ccc(-c2nnn(Cc3cc(=O)n4ccsc4n3)n2)cc1	9	0
CN(C(=O)CSc1ncc(-c2ccccc2)n1C)C1(C#N)CCCCC1	3	-2
Nc1nc2c(s1)CCc1nonc1-2	20	6
COC(=O)C(NC=O)C(O)(Cc1ccccc1)C(F)(F)F (stereo not drawn)	17	8
CN1c2ccccc2C(=O)NC1c1cccc(C(F)(F)F)c1 (stereo not drawn)	-5	-8
CNC(=O)COc1ncnc2sccc12	7	14
Cc1ccccc1SCC(=O)NC1CCOC1=O (stereo not drawn)	25	14
CCN(CC(=O)Nc1ccc2c(c1)OCCO2)C(=O)CC1CCCC1	2	-11
CCOC(=O)C1=C(C)Nc2c(C#N)c(N3CCOCC3)nn2C1c1ccc(OC)cc1 (stereo not drawn)	18	6
O=C(CC1Sc2ccccc2NC1=O)OCn1nnc2ccccc2c1=O (stereo not drawn)	6	-4
O=C(NCC(=O)N1CCN(S(=O)(=O)c2ccccc2)CC1)c1ccc(Cl)cc1	4	-2
CN(C)S(=O)(=O)c1cccc(C(=O)OCC(=O)N2CCCCC2)c1	19	12
O=C(NC(=S)N1CCOCC1)C12CC3CC(CC(C3)C1)C2	0	3
CCN(Cc1ccccc1)C(=O)c1ccc(C#N)cc1	8	13
O=C(COC(=O)c1ccc(-c2nc3ccccc3s2)s1)NC1CC1	-10	-9

Among those listed so far, these have a COOH group:
compound	BmaI1	BmaI1 counterscreen
NC(=O)CNS(=O)(=O)c1ccc(Br)c(C(=O)O)c1	12	10
Cc1cccc(COc2ccccc2C(=O)O)c1	8	6
COc1ccc(-c2n[nH]c(=S)n2CCC(=O)O)cc1	46	31
CC(C)c1cc(C(=O)O)c2cnn(C(C)C)c2n1	-6	-13
CC(SCC(=O)Nc1ccc(F)cc1)C(=O)O (stereo not drawn)	4	4

Carrying on.
compound	BmaI1	BmaI1 counterscreen
CC(C)n1ncc2c(C(=O)N3CCc4ccccc43)cc(C3CC3)nc21	2	-1
CCCCn1c(N)c(N2CCC(C(N)=O)CC2)c(=O)[nH]c1=O	25	23
C=CCNC(=O)CSc1nnc(C(CC)N(C)C)n1C1CCCCC1 (stereo not drawn)	-2	0
O=C(OCN1C(=O)c2ccccc2C1=O)c1cccnc1SC(F)F	12	2
Cc1cn([C@H]2C=C[C@@H](CO)O2)c(=O)[nH]c1=O	8&9	9&12
COC(=O)c1cc(-c2ccco2)nc2c1cnn2Cc1ccc2c(c1)OCO2	24	4
COc1ccc(N=Cc2c(N3CCCC3)nc3c(C)cccn3c2=O)cc1	58	21
CN(C)S(=O)(=O)c1ccc(C(=O)OCc2ccccc2F)cc1	1	4
CCOC(=O)C1CCN(C(=O)c2cn(-c3ccccc3)nc2-c2cccnc2)CC1	6	-8
Cc1cc(C(=O)N=c2sccn2Cc2ccc(Cl)cc2Cl)on1	22	35
CN(C(=O)CSc1nnc(-c2cccs2)o1)C1CCCCC1	-4	-8
O=c1[nH][nH]c(=S)n1CCc1ccccc1	94	58
COc1ccc(CSc2nc3ccccc3n2CCC#N)cc1F	14	5
COc1ccc(N2CCN(C(=O)c3nn(-c4ccccc4)nc3C)CC2)cc1	29	10
CC1=CC(=O)C(N(C)C2CCS(=O)(=O)C2)=CC1=O (stereo not drawn)	34	-21
CN(CCO)c1nc(N)c2c(N)nc3c(c2c1C#N)CC(=O)N3C1CCCC1	1	1
CC(C)(CNc1ccc(S(=O)(=O)N2CCCC2)cn1)N1CCCCC1	10	17
Cc1ccc2nc(-c3ccc(O)cc3O)cn2c1	84	77
COc1ccc(NC(C)C(=O)N2CCOCC2)c(OC)c1 (stereo not drawn)	76	41
Cn1c(=O)c2c(SC/C(O)=C(\C#N)c3nc4ccccc4[nH]3)nc(C(C)(C)C)nc2n(C)c1=O	6	-4
COc1cc(OC)c(C(=O)OCC(=O)N(C)C2CCCCC2)cc1OC	3	0
O=S(=O)(c1ccccc1)c1nc(-c2cccs2)oc1NCc1cccnc1	12	4
CCOc1ccccc1NC(=O)CCN1C(=O)NC2(CCCC2)C1=O	11	5
Cc1ccc(Nc2nc(COC(=O)c3ccc(-n4cnnn4)cc3)cs2)cc1	20	7
CC(C)NC1CCC(C(C)(C)C)CC1 (stereo not drawn)	20	15
CCCNC(=O)Nc1ccc(S(=O)(=O)Nc2ccc(OCC)cc2)cc1	16	2
Cc1sc2nc(CSCC(=O)c3cc(C)n(CCC(C)C)c3C)[nH]c(=O)c2c1C	6	1
Cc1cc(=O)oc2cc(OCC(=O)OCC(=O)c3ccc4c(c3)NC(=O)CO4)ccc12	13	8
CCCC1(CCC)NC(=O)N(Cc2cc(=O)oc3c(C)c(C)ccc23)C1=O	9	1
CC(Sc1nncn1C)c1nnc(-c2cccs2)o1 (stereo not drawn)	21	14
CC1CCCCN1C(=O)CN(c1nccs1)S(=O)(=O)c1ccccc1 (stereo not drawn)	8	2
Nc1nc(N)nc(SCC(=O)N(C2=CCCCC2)C2CC2)n1	-2	2
CC(C)C1OC(N)=NC1=O (stereo not drawn)	-2	2
CN(CC(=O)Nc1ccc(OC(F)(F)F)cc1)C(=O)c1ccc(N2CCCC2=O)cc1	20	14
CNc1sc(C(=O)c2cccs2)c(N)c1-c1nc2ccccc2s1	34	25
CC(OC(=O)c1ccccc1NCc1ccco1)C(=O)Nc1ccc2c(c1)OCO2 (stereo not drawn)	4	0
O=C(Nc1ccc2c(c1)OCCO2)c1ccccc1NCC(=O)N1CCc2ccccc21	12	5
Cc1noc(C)c1COC(=O)c1ccccc1SCC(=O)N1CCCC1	3	0
CCc1ccc(C(N)c2cccs2)cc1 (stereo not drawn)	-4	14
COCOC(=O)C1(c2ccc(Cl)cc2)CCCC1	26	8
O=C(OCC(=O)N1CCOCC1)c1ccc(-c2ccccc2)cc1	6	0
COCCn1c(O)c(C=NCCCCCc2nc(-c3ccc(C)cc3)no2)c(=O)[nH]c1=S	-4	-4
Cc1cc(/C=C/C(=O)NCCc2ccccn2)c(C)n1Cc1ccco1	2	1
CC1(C)S[C@@H]2[C@H](N=CN3CCCCCC3)C(=O)N2[C@H]1C(=O)O	-4	1
O=C(COc1ccc(-c2nnco2)cc1)NCc1ccco1	23	8
COc1ccccc1/C=C/C(=O)OCC(=O)Nc1ccc(Cl)cn1	20	9
COc1ccc(N(Cc2cc(-c3ccco3)on2)S(=O)(=O)c2cc(C)ccc2C)cc1	22	6
CC1CCCC(NC(=O)COC(=O)Cc2cccs2)C1C (stereo not drawn)	8	8
CC(OCCCN)c1ccccc1 (stereo not drawn)	12	6
Cc1ccc(NC(=O)CN(C)C(=O)c2cccc(S(=O)(=O)N3CCOCC3)c2)cc1	14	7
O=C(CCC1CCCCC1)Nc1cc(Cl)ccc1N1CCOCC1	12	2
CC(C)CNC(=O)c1ccc(N(C)C)cc1	-4	1
C=CCN=C1NN=C(c2cc(C)n(CC=C)c2C)CS1	24	8

Only part of the results is shown; count on the stated rates, not on these rows.
